# Assay outcomes: PubChem BioAssay, National Center for Advancing Translational Sciences (NCATS)
# VACV Venus inh – vaccinia inhibition (Venus reporter). 330,000 compounds, 0.46% hits. Vaccinia virus Venus reporter expression, fluorescence. AID 720580. Potency, µM (titrated, usually from 36.5 µM), for the others: top-dose activity change, negative = inhibition, most hits filed as inhibitors; active means well fitted inhibition curve with a large enough effect; inconclusive means small, poorly fitted or top-dose-only effect; inactive means no such curve, though single readings can be large or run the other way; tested in A549 cells; further: nearly all actives have a fitted effect of over 30% in size; inactives centre near -10
# Vaccinia mCherry – vaccinia inhibition (mCherry reporter). Vaccinia virus mCherry reporter infection, fluorescence; about a quarter of the inactives have no number. Potency, µM (titrated, usually from 36.5 µM), without a hit: at the top dose activity change, negative = inhibition, hits mostly inhibitors. 310,000 compounds, 0.63% hits. AID 720579; active = well fitted inhibition curve with a large enough effect; inconclusive = small, poorly fitted or top-dose-only effect; inactive = no such curve, though single readings can be large or run the other way; tested in A549 cells; further: nearly all actives have a fitted effect of over 35% in size; inactives centre near -10
# * hit, by the source's call; i = inactive; ? = inconclusive; & = joins results of further samples; ! = repeats disagree; [ ] = dose if it differs, or a comment. On the % scale 0 is the no-effect control and ±100 the full control effect; potency means the concentration at half of the fitted maximal effect. These rows are one share of the data; count on the stated rates, not on these rows.
SMILES,VACV Venus inh,Vaccinia mCherry
O=C1NCC2(CCN(CCc3ccccc3)CC2)O1,-16%&-4%,-1%
COc1cc2nc(N3CCN(C(=O)C4COc5ccccc5O4)CC3)nc(N)c2cc1OC (stereo not drawn),-13%&-16%,-20%&-5%
CC(C)=CC(=O)O[C@@H]1Cc2cc3ccc(=O)oc3cc2OC1(C)C,-18%,-13%
COc1nc(C)nc(Cl)c1NC1=NCCN1,-3%&-8%,-8%&-11%
CCCCCC(=O)O[C@@]1(C(C)=O)CCC2C3CCC4=CC(=O)CC[C@@]4(C)C3CC[C@]21C (stereo partly drawn),-8%,-12%
NS(=O)(=O)c1cc2c(cc1C(F)(F)F)NC(Cc1ccccc1)NS2(=O)=O (stereo not drawn),-5%&-17%,-12%&-2%
CCCOc1ccccc1-c1nc2n[nH]nc2c(=O)[nH]1,-11%&-14%,-12%&-13%
O=c1cc(-c2ccc(O)cc2)oc2cc(O)ccc12,-5%,-7%
Cc1nc2c3ccccc3nc(NNC(=O)CCC(=O)N3CCN(c4ccccc4)CC3)n2n1,-1%,4%
O=C(O)COC(=O)Cc1ccccc1Nc1c(Cl)cccc1Cl,-8%,i
CC[C@H]1OC(=O)C[C@@H](O)[C@H](C)[C@@H](O[C@@H]2O[C@H](C)[C@@H](O)[C@H](N(C)C)[C@H]2O)[C@@H](CCN2C[C@H](C)C[C@H](C)C2)C[C@@H](C)C(=O)/C=C/C(C)=C/[C@@H]1CO[C@@H]1O[C@H](C)[C@@H](O)[C@@H](OC)[C@H]1OC,-7%,-13%
CCC[C@H](N[C@@H](C)C(=O)N1[C@H](C(=O)O)C[C@@H]2CCCC[C@@H]21)C(=O)OCC,-14%,-16%
Nc1nccs1,-8%,-15%
CNC(=O)c1ccc(CSc2nc3ccncc3n2Cc2ccc(C)cc2)cc1,-15%,-16%
CC1(C)O[C@H]2CC(=O)OCC23[C@H]2CC[C@@]4(C)[C@H](c5ccoc5)OC(=O)[C@H]5O[C@]54[C@]2(C)C(=O)C[C@@H]13 (stereo partly drawn),-6%,i
Cc1nnc(NS(=O)(=O)c2ccc(N)cc2)s1,-15%&0%,-15%
Cc1onc(-c2ccccc2Cl)c1C(=O)N[C@@H]1C(=O)N2[C@@H]1SC(C)(C)[C@@H]2C(=O)O,-13%&-17%,-18%&-6%
O=c1cc[nH]c(=O)[nH]1,-20%,-1%
c1ccc2c(CC3=NCCN3)cccc2c1,-4%&1%&1%,-11%&-8%
C=C1c2cccc(O)c2C(=O)C2C(=O)[C@]3(O)C(=O)C(C(N)=O)C(=O)[C@@H](N(C)C)[C@@H]3[C@@H](O)[C@H]12 (stereo partly drawn),-25%,-7%
C/C=C/C=N\NC(=O)c1ccncc1,-11%,-12%
COc1cncc(C#Cc2ccccn2)c1,-7%,-2%
Cc1nn(CC(=O)NCCc2ccccc2)c(=O)c2c1sc1ccccc12,-6%,-8%
CC(=O)[C@H]1CC[C@H]2[C@@H]3C[C@H](C)C4=CC(=O)CC[C@]4(C)[C@H]3[C@@H](O)C[C@]12C,-12%,i
Cc1oc(-c2cccc(Cl)c2)nc1Cn1c(SCc2ccccc2F)nc2ccncc21,-12%,-15%
# The results go on:
SMILES,VACV Venus inh,Vaccinia mCherry
C[C@]12CC[C@H]3[C@@H](CCC4=CC(=O)CC[C@@]43C)[C@@H]1CC[C@@H]2C(=O)CO,1%,-3%
Nc1cc(-c2ccncc2)c[nH]c1=O,-7%&-4%,-3%
CC[C@@H]1C(=O)OC[C@@H]1Cc1cncn1C,-9%,-21%
O=C(O)CN1C(=O)c2cccc3cccc(c23)C1=O,-10%[60.7 µM],-18%[60.7 µM]
O=C(O)[C@@H]1[C@H]2C[C@H]3c4[nH]c5ccccc5c4CCN3C[C@@H]2CC[C@@H]1O,3%,-10%
CC1=NN(c2ccccc2)C(=O)C1,-17%&-8%,-9%&-13%
CC(=O)NCCCCCC(=O)O,-7%,i
CN(C)C/C=C(/c1ccc(Br)cc1)c1cccnc1,-19%,-27%
CN1CCC(=C2c3ccccc3CCc3sccc32)CC1,-29%&-11%,?
CCCCC1CCC(CCCC(C)CCC(=O)O)CC1 (stereo not drawn),-3%[7.34 µM],-4%[7.34 µM]
CC1(C)OC2CC3C4CC(F)C5=CC(=O)C=CC5(C)C4(F)C(O)CC3(C)C2(C(=O)CO)O1 (stereo not drawn),-28%,?
COc1ccc(CN(CCN(C)C)c2ccccn2)cc1,-6%&-21%&-11%&-5%,-13%&-14%
Cc1nc2c3ccccc3nc(NNC(=O)CCC(=O)N3CCN(c4cc(Cl)ccc4C)CC3)n2n1,-9%,-3%
COc1c(O)cc2c(c1O)C1OC(CO)C(O)C(O)C1OC2=O (stereo not drawn),-17%,-16%
CC(=O)N1C[C@H](O)C[C@H]1C(=O)O,-12%,-6%
O=C(Cn1ccnc1[N+](=O)[O-])NCCO,-10%,i
CC(C)Cn1cnc2c1c(=O)n(C)c(=O)n2C,1%,-14%
COc1ccc(NC(=O)Cn2ccn(-c3ccc(C)c(C)c3)c(=O)c2=O)cc1Cl,-11%,-6%
O=C1N(c2ccccc2)c2ccccc2C1(Cc1ccncc1)Cc1ccncc1,-15%,i
COc1cccc(CCc2ccccc2OCC(CN(C)C)OC(=O)CCC(=O)O)c1 (stereo not drawn),-19%,-15%
COc1ccccc1OCC(O)COC(N)=O (stereo not drawn),-7%&-7%,-14%&-11%
CCCCCCCCO,-10%,-3%
Cc1c(C(=O)O)c(O)cc2c1C(=O)c1c(O)c([C@H]3O[C@H](CO)[C@@H](O)[C@H](O)[C@H]3O)c(O)c(O)c1C2=O,125%[activator],186%[activator]
Cc1onc(-c2ccccc2Cl)c1C(=O)NC1C(=O)N2C1SC(C)(C)C2C(=O)O (stereo not drawn),-7%,-10%
N=C(N=C(N)N)N1CCOCC1,-10%,-13%

# Of the compounds above, eleven contain four or more nitrogen atoms.
SMILES,VACV Venus inh,Vaccinia mCherry
COc1cc2nc(N3CCN(C(=O)C4COc5ccccc5O4)CC3)nc(N)c2cc1OC (stereo not drawn),-13%&-16%,-20%&-5%
COc1nc(C)nc(Cl)c1NC1=NCCN1,-3%&-8%,-8%&-11%
CCCOc1ccccc1-c1nc2n[nH]nc2c(=O)[nH]1,-11%&-14%,-12%&-13%
Cc1nc2c3ccccc3nc(NNC(=O)CCC(=O)N3CCN(c4ccccc4)CC3)n2n1,-1%,4%
CNC(=O)c1ccc(CSc2nc3ccncc3n2Cc2ccc(C)cc2)cc1,-15%,-16%
Cc1nnc(NS(=O)(=O)c2ccc(N)cc2)s1,-15%&0%,-15%
Cc1oc(-c2cccc(Cl)c2)nc1Cn1c(SCc2ccccc2F)nc2ccncc21,-12%,-15%
Cc1nc2c3ccccc3nc(NNC(=O)CCC(=O)N3CCN(c4cc(Cl)ccc4C)CC3)n2n1,-9%,-3%
O=C(Cn1ccnc1[N+](=O)[O-])NCCO,-10%,i
CC(C)Cn1cnc2c1c(=O)n(C)c(=O)n2C,1%,-14%
N=C(N=C(N)N)N1CCOCC1,-10%,-13%

# (continued)
SMILES,VACV Venus inh,Vaccinia mCherry
CC(=O)O[C@]1(C(C)=O)CC[C@H]2[C@@H]3C=C(Cl)C4=CC(=O)[C@@H]5C[C@@H]5[C@]4(C)[C@H]3CC[C@@]21C,?,?
CCCC(NC(C)C(=O)N1C(C(=O)O)CC2CCCCC21)C(=O)OCC (stereo not drawn),1%,-4%
C=CC(C)(O)CC/C=C(\C)CCC=C(C)C (stereo not drawn),0%,i
CN(C)CCCN1c2ccccc2Sc2ccccc21,-24%&-21%&-28%,?
COc1ccc(C(=O)Nc2nc3ccccc3n2CCOc2ccc(Cl)cc2)cc1,-27%,-20%
Cc1coc2c1C(=O)C(=O)c1c-2ccc2c1CCCC2(C)C,11µM*!,10µM*!
C=CCSCC=C,-2%,-8%

# A run of entries from further up:
SMILES,VACV Venus inh,Vaccinia mCherry
Cc1coc2c1C(=O)C(=O)c1c-2ccc2c1CCCC2(C)C,11µM*!,10µM*!
C=CCSCC=C,-2%,-8%
